High-throughput results: PubChem BioAssay, Broad Institute
UUG fidelity: modulators of start codon recognition fidelity in yeast. S. cerevisiae UUG-firefly luciferase reporter, luminescence/redox ratio. hit rate 0.13% among 350,000. activity score, % at 18.7 µM;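 active means replicate mean at a twofold rise or more, about +100% in these data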;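 further: firefly luciferase made from a UUG start codon reports start codon fidelity; reporter light over untreated wells divided by growth signal over untreated wells; some hits fall short of that in this replicate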
Env fusion inh: inhibitors of HIV Env-mediated cell fusion | HeLa-JRFL Env/CEM21 cell fusion, luciferase | inhibition, % at 12.3 µM | AID 651610 | hit rate 1.1% among 360,000;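 active means mean replicate inhibition score of at least 50 and every replicate individually at or above 50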;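 further: 0% = plate neutral controls and 100% = maraviroc near 300 nM; one replicate is shown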
* = called active by the depositor; [ ] = dose if it differs, or a comment.

SMILES | UUG fidelity | Env fusion inh
COCC(=O)Nc1ccc2c(c1)C(=O)N(C)[C@@H]1CC[C@H](CC(=O)OC)O[C@H]1CO2 | -10 | -3[16.7 µM]
COCC(=O)N(C)C[C@H]1Oc2cc(C#C[C@H](C)O)ccc2S(=O)(=O)N([C@H](C)CO)C[C@H]1C | -14 | 7[16.7 µM]
C[C@@H]1CN([C@@H](C)CO)C(=O)c2cc(NC(=O)C3CC3)ccc2O[C@H]1CN(C)S(=O)(=O)c1cccs1 | 16 | -8[16.7 µM]
C[C@@H]1CN([C@H](C)CO)C(=O)c2cc(-c3ccc(F)cc3)cnc2O[C@H]1CN(C)Cc1cncnc1 | 26 | -97[16.7 µM]
CC(=O)N(C)C[C@H]1Oc2cc(C#CC(C)C)ccc2S(=O)(=O)N([C@H](C)CO)C[C@@H]1C | -4 | -12[16.7 µM]
Cc1noc(C)c1NC(=O)Nc1ccc2c(c1)C(=O)N([C@H](C)CO)C[C@H](C)[C@@H](CN(C)Cc1ccc(C(F)(F)F)cc1)OCCCC[C@@H](C)O2 | -7 | -24[16.7 µM]
O=C(C[C@H]1C[C@H]2c3cc(NC(=O)Nc4ccccc4F)ccc3O[C@H]2[C@H](CO)O1)NCc1ccncc1 | -16 | -1[16.7 µM]
Cc1ccc(S(=O)(=O)N(C)C[C@H]2OCCCC[C@H](C)Oc3ccc(NC(=O)Nc4c(C)noc4C)cc3C(=O)N([C@H](C)CO)C[C@H]2C)cc1 | 8 | 21[16.7 µM]
C[C@@H]1CN([C@@H](C)CO)S(=O)(=O)c2ccc(-c3ccc(C#N)cc3)cc2O[C@H]1CN(C)C(=O)CN(C)C | -3 | 1[16.7 µM]
COc1ccc(-c2cnc3c(c2)C(=O)N([C@H](C)CO)C[C@@H](C)[C@@H](CN(C)C(=O)C2CC2)O3)cc1 | 1 | 9[16.7 µM]
C[C@@H]1CCCCO[C@H](CN(C)Cc2ccccc2)[C@H](C)CN([C@H](C)CO)C(=O)c2cc(N(C)C)ccc2O1 | -1 | -98[16.7 µM]
CCCN(C)C[C@@H]1Oc2cc(C#Cc3ccccn3)ccc2S(=O)(=O)N([C@H](C)CO)C[C@@H]1C | -4 | -17[16.7 µM]
Cc1ccc(S(=O)(=O)N(C)C[C@H]2OCCCC[C@@H](C)Oc3ccc(NS(=O)(=O)c4ccc(F)cc4)cc3C(=O)N([C@H](C)CO)C[C@H]2C)cc1 | 6 | -14[16.7 µM]
CN(C)CC(=O)N1[C@H](CO)[C@@H](c2ccc(C#CC3CC3)cc2)[C@@H]1C#N | 9 | -4[16.7 µM]
C[C@@H]1CN([C@H](C)CO)C(=O)c2cc(NC(=O)Nc3ccc(F)cc3)ccc2O[C@@H](C)CCCCO[C@@H]1CN(C)S(=O)(=O)c1ccc(F)cc1 | -2 | -4[16.7 µM]
COCC(=O)N(C)C[C@H]1Oc2cc(C3=CCCC3)ccc2S(=O)(=O)N([C@@H](C)CO)C[C@H]1C | 3 | -6[16.7 µM]
C[C@@H]1CN([C@@H](C)CO)C(=O)c2cc(NS(=O)(=O)c3cn(C)cn3)ccc2O[C@@H](C)CCCCO[C@H]1CN(C)S(=O)(=O)c1ccc(F)cc1 | 5 | 8[16.7 µM]
C[C@H](CO)N1C[C@H](C)[C@@H](CN(C)S(=O)(=O)c2ccccc2)Oc2ccc(NS(C)(=O)=O)cc2CC1=O | 8 | 4[16.7 µM]
CC(C)C#Cc1ccc2c(c1)O[C@@H](CN(C)C(=O)NC(C)C)[C@@H](C)CN([C@H](C)CO)S2(=O)=O | 35 | -23[16.7 µM]
O=S(=O)(N[C@H]1CC[C@H](CCn2cc(C3(O)CCCC3)nn2)O[C@@H]1CO)c1ccc(F)cc1 | -2 | -28[16.7 µM]
C[C@@H]1CN([C@H](C)CO)C(=O)c2cc(NS(=O)(=O)c3ccccc3)ccc2O[C@H]1CN(C)C(=O)Nc1cccc2ccccc12 | 0 | 13[16.7 µM]
C[C@@H]1CN([C@@H](C)CO)C(=O)c2cc(C#Cc3ccccc3)cnc2O[C@H]1CN(C)C(=O)c1ccccn1 | 6 | 4[16.7 µM]
C[C@@H]1CN([C@@H](C)CO)C(=O)c2cc(NS(=O)(=O)c3cccs3)ccc2O[C@@H](C)CCCCO[C@H]1CN(C)C(=O)CCC(F)(F)F | 14 | -51[16.7 µM]
Cc1ccc(S(=O)(=O)N(C)C[C@H]2Oc3ncc(-c4ccncc4)cc3C(=O)N([C@H](C)CO)C[C@H]2C)cc1 | 37 | 4[16.7 µM]
C[C@@H]1CN([C@@H](C)CO)C(=O)c2cc(NC(=O)Nc3cccc4ccccc34)ccc2O[C@@H](C)CCCCO[C@@H]1CN(C)Cc1ccccc1 | 13 | 15[16.7 µM]
C[C@@H]1CN([C@@H](C)CO)C(=O)Cc2cc(NS(C)(=O)=O)ccc2O[C@H]1CN(C)S(=O)(=O)c1ccccc1 | -8 | -10[16.7 µM]
COc1ccc(NC(=O)Nc2cccc3c2O[C@H](CN(C)C(=O)Nc2c(C)noc2C)[C@@H](C)CN([C@@H](C)CO)C3=O)cc1 | -1 | -9[16.7 µM]
C[C@@H]1CN([C@@H](C)CO)C(=O)c2cc(NC(=O)NC3CCCCC3)ccc2O[C@H]1CN(C)C(=O)Nc1ccc(C(F)(F)F)cc1 | -5 | 0[16.7 µM]
O=C(CC1CC1)N[C@@H]1CC[C@H](CCNS(=O)(=O)c2ccc(F)cc2)O[C@@H]1CO | 0 | 9[16.7 µM]
C[C@H]1CN([C@@H](C)CO)C(=O)c2cccc(NS(=O)(=O)c3cn(C)cn3)c2O[C@@H]1CN(C)CC1CCCCC1 | 7 | -6[16.7 µM]
C[C@@H]1CN([C@H](C)CO)C(=O)CCCn2cc(nn2)CO[C@H]1CN(C)Cc1ccc(-c2ccccc2)cc1 | 15 | 7[16.7 µM]
Cc1noc(C)c1NC(=O)Nc1ccc2c(c1)CC(=O)N([C@@H](C)CO)C[C@H](C)[C@H](CN(C)Cc1ccc(C(F)(F)F)cc1)O2 | 15 | -2[16.7 µM]
O=C(CCN1CCCCC1)NCC[C@@H]1CC[C@H](NS(=O)(=O)c2cccc(F)c2)[C@H](CO)O1 | -8 | 2[16.7 µM]
O=C(C[C@@H]1C=C[C@@H](NC(=O)c2cccnc2)[C@H](CO)O1)NCc1ccc(Cl)c(Cl)c1 | -1 | -33[16.7 µM]
CC(C)NC(=O)N[C@@H]1C=C[C@@H](CC(=O)NCCN2CCCC2)O[C@H]1CO | -24 | -9[16.7 µM]
C[C@H](CO)N1C[C@H](C)[C@@H](CN(C)Cc2ccc(Cl)c(Cl)c2)Oc2ccc(NS(=O)(=O)c3ccccc3)cc2CC1=O | 5 | -5[16.7 µM]
COc1ccc(-c2ccc3c(c2)O[C@H](CN(C)C)[C@H](C)CN([C@@H](C)CO)S3(=O)=O)cc1 | 5 | -1[16.7 µM]
C[C@H](CO)N1C[C@H](C)[C@H](CN(C)C(=O)Nc2ccccc2F)Oc2ncc(-c3cccc(F)c3)cc2C1=O | -16 | -7[16.7 µM]
C[C@@H]1CN([C@H](C)CO)C(=O)c2cc(NS(=O)(=O)c3cccs3)ccc2O[C@@H](C)CCCCO[C@@H]1CN(C)C(=O)c1ccncc1 | 5 | 23[16.7 µM]
CCNC(=O)Nc1ccc2c(c1)C(=O)N(C)[C@H]1CC[C@H](CC(=O)NCc3cccc(F)c3)O[C@H]1CO2 | -14 | 4[16.7 µM]

Arranged by heavy-atom count (low to high): 13 of the compounds above
SMILES | UUG fidelity | Env fusion inh
CC(C)NC(=O)N[C@@H]1C=C[C@@H](CC(=O)NCCN2CCCC2)O[C@H]1CO | -24 | -9[16.7 µM]
O=C(CC1CC1)N[C@@H]1CC[C@H](CCNS(=O)(=O)c2ccc(F)cc2)O[C@@H]1CO | 0 | 9[16.7 µM]
O=C(C[C@@H]1C=C[C@@H](NC(=O)c2cccnc2)[C@H](CO)O1)NCc1ccc(Cl)c(Cl)c1 | -1 | -33[16.7 µM]
COc1ccc(-c2ccc3c(c2)O[C@H](CN(C)C)[C@H](C)CN([C@@H](C)CO)S3(=O)=O)cc1 | 5 | -1[16.7 µM]
O=C(CCN1CCCCC1)NCC[C@@H]1CC[C@H](NS(=O)(=O)c2cccc(F)c2)[C@H](CO)O1 | -8 | 2[16.7 µM]
CCNC(=O)Nc1ccc2c(c1)C(=O)N(C)[C@H]1CC[C@H](CC(=O)NCc3cccc(F)c3)O[C@H]1CO2 | -14 | 4[16.7 µM]
C[C@@H]1CN([C@H](C)CO)C(=O)CCCn2cc(nn2)CO[C@H]1CN(C)Cc1ccc(-c2ccccc2)cc1 | 15 | 7[16.7 µM]
C[C@H](CO)N1C[C@H](C)[C@H](CN(C)C(=O)Nc2ccccc2F)Oc2ncc(-c3cccc(F)c3)cc2C1=O | -16 | -7[16.7 µM]
C[C@H](CO)N1C[C@H](C)[C@@H](CN(C)Cc2ccc(Cl)c(Cl)c2)Oc2ccc(NS(=O)(=O)c3ccccc3)cc2CC1=O | 5 | -5[16.7 µM]
COc1ccc(NC(=O)Nc2cccc3c2O[C@H](CN(C)C(=O)Nc2c(C)noc2C)[C@@H](C)CN([C@@H](C)CO)C3=O)cc1 | -1 | -9[16.7 µM]
C[C@@H]1CN([C@@H](C)CO)C(=O)c2cc(NC(=O)NC3CCCCC3)ccc2O[C@H]1CN(C)C(=O)Nc1ccc(C(F)(F)F)cc1 | -5 | 0[16.7 µM]
C[C@@H]1CN([C@H](C)CO)C(=O)c2cc(NS(=O)(=O)c3cccs3)ccc2O[C@@H](C)CCCCO[C@@H]1CN(C)C(=O)c1ccncc1 | 5 | 23[16.7 µM]
C[C@@H]1CN([C@@H](C)CO)C(=O)c2cc(NC(=O)Nc3cccc4ccccc34)ccc2O[C@@H](C)CCCCO[C@@H]1CN(C)Cc1ccccc1 | 13 | 15[16.7 µM]

New compounds follow.
SMILES | UUG fidelity | Env fusion inh
COC(=O)C[C@@H]1CC[C@@H]2[C@@H](COc3ccc(NC(=O)c4cccs4)cc3C(=O)N2C)O1 | 3 | 8[16.7 µM]
C[C@@H]1CN([C@@H](C)CO)C(=O)c2cc(NC(=O)Nc3ccc(F)cc3)ccc2O[C@@H](C)CCCCO[C@H]1CN(C)Cc1ccc(C(F)(F)F)cc1 | 3 | 27[16.7 µM]
CC(C)NC(=O)Nc1ccc2c(c1)C(=O)N([C@H](C)CO)C[C@@H](C)[C@H](CN(C)CC1CC1)OCCCC[C@H](C)O2 | 4 | 13[16.7 µM]
COc1ccc(NC(=O)N(C)C[C@@H]2Oc3ccc(NC(=O)Cc4ccccc4)cc3C(=O)N([C@@H](C)CO)C[C@@H]2C)cc1 | 2 | -3[16.7 µM]
O=C(C[C@H]1C[C@@H]2c3cc(NC(=O)CC4CC4)ccc3O[C@@H]2[C@@H](CO)O1)NCc1cc(F)ccc1F | 9 | 22[16.7 µM]
O=C(N[C@@H]1CC[C@H](CCNS(=O)(=O)c2cccc(Cl)c2)O[C@@H]1CO)c1ccccc1 | -5 | -9[16.7 µM]
CCCC#Cc1ccc2c(c1)O[C@@H](CN(C)C(=O)C1CCCCC1)[C@@H](C)CN([C@H](C)CO)S2(=O)=O | -1 | 22[16.7 µM]
C[C@@H]1CN([C@H](C)CO)C(=O)Cc2cc(NC(=O)Nc3ccc4c(c3)OCO4)ccc2O[C@@H]1CN(C)S(=O)(=O)c1cn(C)cn1 | -6 | 8[16.7 µM]
CC(C)NC(=O)Nc1ccc2c(c1)C(=O)N([C@@H](C)CO)C[C@H](C)[C@H](CN(C)Cc1ccc(C(=O)O)cc1)OCCCC[C@H](C)O2 | 36 | -22[16.7 µM]
COc1ccc(NC(=O)N(C)C[C@H]2Oc3ncc(C#CCN(C)C)cc3C(=O)N([C@H](C)CO)C[C@H]2C)cc1 | 2 | 6[16.7 µM]
C[C@@H]1CN([C@H](C)CO)C(=O)c2cc(NS(C)(=O)=O)ccc2O[C@@H]1CN(C)CC1CCCCC1 | -9 | 11[16.7 µM]
COc1ccc(C#Cc2ccc3c(c2)O[C@H](CN(C)C)[C@H](C)CN([C@@H](C)CO)S3(=O)=O)cc1 | -3 | -19[16.7 µM]
CC(=O)N(C)C[C@@H]1Oc2ncc(C#Cc3ccccn3)cc2C(=O)N([C@H](C)CO)C[C@@H]1C | 10 | -12[16.7 µM]
COc1ccc(-c2cn(CC[C@H]3CC[C@@H](NS(=O)(=O)c4ccccc4C)[C@H](CO)O3)nn2)cc1 | 10 | 2[16.7 µM]
C/C=C/c1ccc2c(c1)O[C@H](CN(C)C(=O)CC)[C@H](C)CN([C@@H](C)CO)S2(=O)=O | 2 | 13[16.7 µM]
C[C@@H]1CN([C@H](C)CO)C(=O)c2cccc(NS(=O)(=O)c3cccs3)c2O[C@H]1CN(C)S(=O)(=O)c1ccc(F)cc1 | 0 | 13[16.7 µM]
CC(C)NC(=O)N(C)C[C@@H]1Oc2ccc(NC(=O)Nc3ccc4c(c3)OCO4)cc2CC(=O)N([C@H](C)CO)C[C@H]1C | 0 | -36[16.7 µM]
CCCNC(=O)C[C@@H]1C[C@H]2c3cc(NS(=O)(=O)c4ccc(OC)cc4)ccc3O[C@H]2[C@@H](CO)O1 | -16 | -16[16.7 µM]
COc1ccccc1CNC(=O)C[C@H]1C[C@@H]2c3cc(NS(C)(=O)=O)ccc3O[C@@H]2[C@@H](CO)O1 | 0 | -3[16.7 µM]
O=C(C[C@H]1C=C[C@@H](NC(=O)C2CCC2)[C@H](CO)O1)NCc1ccncc1 | 4 | -6[16.7 µM]
C[C@H](CO)N1C[C@H](C)[C@H](CN(C)Cc2ccncc2)OCCCC[C@H](C)Oc2ccc(NS(=O)(=O)c3cn(C)cn3)cc2C1=O | -4 | 8[16.7 µM]
O=C(C[C@H]1C[C@@H]2c3cc(NS(=O)(=O)c4ccc(F)cc4)ccc3O[C@@H]2[C@@H](CO)O1)NCc1cccc(F)c1 | 19 | 11[16.7 µM]
O=C(C[C@H]1C[C@@H]2c3cc(NC(=O)Nc4ccccc4)ccc3O[C@@H]2[C@H](CO)O1)NC1CCCCC1 | 5 | -14[16.7 µM]

An excerpt; the hit share may differ from the screen's.
